Compound activity from PubChem.
HSV replic up – HSV replication enhancement; AID 1956; 220,000 tested, 0.005% active; HSV replication augmentation in cells, fold increase; maximum fold increase;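 active = peak rise of 1.5-fold or more in the series; inconclusive = self-fluorescent or not available for retest; tested in PC3 cells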;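 also: first round at 10 µM; read as green reporter fluorescence; hits show the peak of a series up to 25 µM; 1 = signal of infected wells without compound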
INS promoter inh – TRM-6 insulin promoter activity inhibition; TRM-6 cells (human fetal islet line), insulin promoter-eGFP reporter, imaging; reporter expression induced with tamoxifen; inhibition, % at 2 µM; 130,000 tested, 0.9% active;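 active = inhibition above the mean plus 3 SD, with well images judged a real hit on visual review, cut at about 60% in these data, passing the limit was not always enough; inconclusive = inhibition over the cutoff but images rejected on review; inactive = inhibition not above the cutoff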
GALR2 ag – GALR2 (human) receptor agonism | O43603 | GALR2-expressing cells, agonist activation read-out | activation, %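 (tested at 5 µM)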 | 140,000 tested, 0.48% active | AID 803;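 active = above mean plus 3 SD of all compounds, about 5% in these data, not always enough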;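 also: 0% = vehicle buffer wells and 100% = reference agonist at full effect; tested in CHO reporter cells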
Target sequence (O43603 whole entry, looked up): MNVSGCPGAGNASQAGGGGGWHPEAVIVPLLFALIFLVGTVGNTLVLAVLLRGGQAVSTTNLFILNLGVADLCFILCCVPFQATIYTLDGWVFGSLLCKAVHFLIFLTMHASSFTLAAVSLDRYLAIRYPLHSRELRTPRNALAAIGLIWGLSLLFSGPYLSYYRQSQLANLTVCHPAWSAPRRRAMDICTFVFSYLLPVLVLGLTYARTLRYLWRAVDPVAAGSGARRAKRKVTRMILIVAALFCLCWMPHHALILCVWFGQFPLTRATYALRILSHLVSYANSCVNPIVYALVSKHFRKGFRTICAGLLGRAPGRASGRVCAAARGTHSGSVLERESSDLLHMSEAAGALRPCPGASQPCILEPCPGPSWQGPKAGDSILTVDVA
PKD1 inh – inhibitors of human PKD1 kinase; PKD1 kinase fluorescence polarization assay; AID 797; Q15139; 200,000 tested, 0.056% active; inhibition, %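 (about 10 µM by stock and volumes)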;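 active = inhibition of 50% or more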;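 also: controls were vehicle for no effect and a reference inhibitor for full effect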
RGS16-Gao HTS – regulators of human RGS16-Galphao interaction. binding response (% of control), % at 10 µM. O15492+P09471. 220,000 tested, 0.38% active. bead-based flow cytometry RGS16-Galphao binding, fluorescence; actives lie on both sides;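 active = below 25% or above 175%, edge rows of some plates excepted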;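 also: Galphao activated by GDP with aluminum fluoride before binding; 100% = wells without compound and 0% = beads without RGS; some results beyond the cut were filed as inactive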
Target sequence (O15492 whole entry, looked up): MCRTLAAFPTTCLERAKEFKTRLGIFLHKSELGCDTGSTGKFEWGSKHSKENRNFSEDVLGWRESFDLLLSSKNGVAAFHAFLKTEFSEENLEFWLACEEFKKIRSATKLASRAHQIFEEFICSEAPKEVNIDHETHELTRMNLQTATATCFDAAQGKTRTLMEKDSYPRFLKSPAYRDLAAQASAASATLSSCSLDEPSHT
Target sequence (P09471 whole entry, looked up): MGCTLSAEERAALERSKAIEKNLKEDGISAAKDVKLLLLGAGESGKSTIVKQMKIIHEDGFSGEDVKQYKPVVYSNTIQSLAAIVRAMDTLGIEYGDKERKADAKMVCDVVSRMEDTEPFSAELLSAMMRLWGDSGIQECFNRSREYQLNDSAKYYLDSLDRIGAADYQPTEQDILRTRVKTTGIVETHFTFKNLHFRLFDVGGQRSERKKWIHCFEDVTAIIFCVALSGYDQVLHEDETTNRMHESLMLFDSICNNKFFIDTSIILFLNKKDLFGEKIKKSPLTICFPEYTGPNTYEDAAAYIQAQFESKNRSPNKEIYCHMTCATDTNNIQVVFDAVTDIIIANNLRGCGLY
INS promoter inh cell count – further read-out of INS promoter inh, marked with its call; normalized cell count, %; measured here: cell count, toxicity; reference of the scale not given here;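 cells exposed to compound for 48 h; stained nuclei by imaging scaled within each plate; lower means fewer cells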
HSV replic up primary fold – recorded beside HSV replic up, whose call it bears; fold increase; compound at 10 µM; measured here: primary screen fold increase 10 uM; tested in PC3 cells;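 GFP signal in the first replicate; 1 = infected wells without compound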
The depositor's hits bear a star; i = inactive; ? = inconclusive; · = not tested or not shown.

nr	compound	HSV replic up	HSV replic up primary fold	INS promoter inh	INS promoter inh cell count	GALR2 ag	PKD1 inh	RGS16-Gao HTS
1	C=C(C)c1ccc(C(C)(C)NC(=O)NCc2ccco2)cc1	i	1	·	·	-2.4	4	101
2	CC(=O)c1sc(NC(=O)COc2ccc(Cl)cc2C)nc1C	i	1	·	·	·	·	100
3	O=C(CSc1nnc2n1CCCN2)c1ccc(Cl)cc1	i	0.95	-8	105	-0.1	1	88
4	CCc1nn2c(=O)cc(CSc3nc4sc5c(c4c(=O)n3C)CCCC5)nc2s1	·	·	-30	119	-0.7	7	·
5	C=CCNC(NC(=O)c1ccccc1)(C(=O)OCC)C(F)(F)F (stereo unspecified)	i	0.68	27	57	-1.3	-5	107
6	COc1ccc(CCNC2CC(=O)N(C3CCCCC3)C2=O)cc1OC (stereo unspecified)	i	0.92	20	116	·	7	99
7	Cc1[nH]c2ccccc2c1CN1CCC(CO)(Cc2ccccc2)CC1	i	0.87	13	106	·	-4	114
8	C=CCn1c(Cc2cccc3ccccc23)n[nH]c1=S	i	0.88	-43	104	0.3	-2	104
9	Cc1cc(C)nc(N2CCC(C(=O)NCc3ccco3)CC2)n1	i	1	39	56	-1.6	-2	99
10	COc1c(C)cc(Br)cc1C(=O)Nc1cccc(-c2nc3ncccc3o2)c1	i	1	·	·	-1.8	-6	106
11	O=C(CNC(=S)N(CCCN1CCOCC1)Cc1cccs1)NC1CCCC1	i	0.95	·	·	·	0	100
12	CC(C)(C)N1OC2CC1c1nc3ccccc3n1C2 (stereo unspecified)	i	0.84	·	·	·	·	106
13	COc1ccc(CN(CC2CCCO2)C(=O)c2cc3ccccc3oc2=O)cc1 (stereo unspecified)	i	0.85	-14	186	·	-5	109
14	CCN1CCN(c2cc3nc(C)n(Cc4ccccc4)c(=O)c3cc2NC(=O)c2ccccc2F)CC1	i	0.92	·	·	·	1	103
15	Cc1cc(NC(=O)c2cc(C(C)C)on2)no1	i	1	12	113	-1.1	-2	98

A draw from above in order of molecular weight, lowest first:
nr	compound	HSV replic up	HSV replic up primary fold	INS promoter inh	INS promoter inh cell count	GALR2 ag	PKD1 inh	RGS16-Gao HTS
12	CC(C)(C)N1OC2CC1c1nc3ccccc3n1C2 (stereo unspecified)	i	0.84	·	·	·	·	106
2	CC(=O)c1sc(NC(=O)COc2ccc(Cl)cc2C)nc1C	i	1	·	·	·	·	100
7	Cc1[nH]c2ccccc2c1CN1CCC(CO)(Cc2ccccc2)CC1	i	0.87	13	106	·	-4	114

More entries follow.
nr	compound	HSV replic up	HSV replic up primary fold	INS promoter inh	INS promoter inh cell count	GALR2 ag	PKD1 inh	RGS16-Gao HTS
16	CS(=O)(=O)N(CC(=O)Nc1ccccc1C(=O)N1CCOCC1)c1ccc(Cl)cc1	i	0.87	·	·	·	·	101
17	Cc1ccccc1-c1nn[nH]n1	i	0.87	29	99	-0.4	3	66
18	CCOc1ccc(C(Nc2ccc(C)cc2)P2(=O)OCCC(C)O2)cc1 (stereo unspecified)	i	0.96	-14	98	0.7	-2	109
19	O=C(C[n+]1cc(-c2ccccc2)n2c1CCC2)Nc1nc(-c2ccc(F)cc2)cs1	i	0.84	·	·	-0.7	3	102
20	O=C1NN(c2ccccc2)C(=O)/C1=C\c1cccc(OC(=O)c2cccs2)c1	i	0.99	14	118	-2.8	-4	92
21	CCOc1cc(/C=C2\SC(=S)N(C(C(=O)O)c3ccccc3)C2=O)ccc1O (stereo unspecified)	?	·	·	·	·	·	99
22	S=C(NCCc1ccccc1)NCC1CCCO1 (stereo unspecified)	i	0.87	-13	123	-1.3	5	95
23	CCN(CC)CCN(C(=O)c1ccc(Br)s1)c1nc2cc3c(cc2s1)OCO3	i	0.98	-6	124	·	-5	106
24	Nn1c(SCc2ccc(Br)cc2)nnc1-c1ccncc1	i	0.94	-38	101	·	4	105
25	O=C(c1ccc(Cl)cc1)N1CCC(O)(CSc2ccc(Cl)cc2Cl)CC1	i	0.93	·	·	-0.2	-2	99
26	CC1(C)CC(=O)C(C=NCCN2CCN(CCCCS(=O)(=O)O)CC2)=C(O)C1	i	0.68	-29	155	-3.3	-6	98
27	COc1cc(CCC(=O)OCC(=O)Nc2ccccc2OC(F)F)cc(OC)c1OC	i	0.89	-47	155	·	-7	102
28	COc1cc(O)c(C(CCN2CCCC(C)C2)c2cc(OC)c(OC)c(OC)c2)c(OC)c1 (stereo unspecified)	i	0.86	·	·	·	·	118
29	COC(=O)c1ccc(COc2ccc(/C=N/O)cc2)o1	i	1	38	88	·	1	102
30	CC[C@@H]1CC=C[C@H]2[C@H]1C(=O)N(Cc1ccccc1)[C@H]2c1ccc(OC)c(Cl)c1	i	0.87	·	·	·	·	109
31	CC1CCCCN1C(=O)Cn1c(=O)n(C2CCCCC2)c(=O)c2ccccc21 (stereo unspecified)	i	0.86	·	·	-1.5	-10	104
32	O=C(Cc1ccc2c(c1)OCCO2)c1c(O)cc(O)cc1O	i	0.75	·	·	-1.1	-1	101
33	O=C(COc1ccccc1)NCc1ccc2c(c1)OCO2	i	1.2	·	·	-0.5	4	104
34	COCCn1c(=NC(C)=O)sc2cc([N+](=O)[O-])ccc21	i	1	16	80	6.2*	-2	98
35	Cc1ccc(NC(=O)C2(c3ccccc3)CCCC2)nc1	i	0.93	6	80	-4.5	-7	·
36	Cc1ccc2c(c1)C1CN(C)CCC1N2C(=O)Nc1ccc(Cl)cc1 (stereo unspecified)	i	0.69	·	·	-1.4	-15	95
37	COc1cc(/C=N/NC(=O)Cc2ccc(Br)cc2)cc(OC)c1O	i	0.87	21	126	·	-4	111
38	COc1ccc(S(=O)(=O)Cc2ccc(C(=O)NC3CC3)o2)cc1	i	0.97	·	·	-1.4	-18	90
39	O=S(=O)(c1ccc2ccccc2c1)N(CC1CO1)c1ccccc1 (stereo unspecified)	i	1.1	6	61	·	2	113
40	CC(NC(=O)c1cccnc1)c1ccc2c(c1)OCO2 (stereo unspecified)	i	1	19	111	-2.0	-3	111
41	CCOC(=O)N1CCC(NC(=O)CN2C(=O)CSc3ncccc32)CC1	i	1	-40	51	-1.9	0	102
42	CCCc1cc(C(N)=O)c(NC(=O)c2ccco2)s1	i	0.96	15	204	-4.2	5	81
43	CCn1c(/C=C2\C(=O)N(C)c3ccccc32)nc2ccccc2c1=O	·	·	·	·	-1.9	-3	102
44	Cc1sc(-n2cccc2)c(C(=O)O)c1C	·	·	·	·	-2.2	-5	100
45	O=C1CC(N2CCC(O)(c3ccc(Cl)cc3)CC2)C(=O)N1Cc1ccc(N2CCCC2=O)cc1 (stereo unspecified)	i	1	-19	166	-1.6	-5	106
46	O=C(CCn1nnc2ccccc21)Nc1nnc(-c2ccccc2F)s1	i	0.92	·	·	-2.2	6	94
47	CCCC(=O)NNC(=O)c1ccoc1C	i	0.88	-49	67	-0.2	-15	82
48	CC(C)(C)C(=O)Nc1cc(C(F)(F)F)ccc1-n1ccnc1	i	0.97	·	·	·	-12	99
49	O=C(CC1C(=O)NCCN1Cc1c(F)cccc1Cl)NCCc1ccccn1 (stereo unspecified)	i	0.7	·	·	·	8	112
50	Cc1cc(C(F)(F)F)c2c(C)nn(CCc3nn[nH]n3)c2n1	i	0.99	5	138	0.0	-4	103
51	C=CCn1c(-c2cc(OC)cc(OC)c2)n[nH]c1=S	i	0.78	·	·	-1.1	-9	100
52	CC(CC(C)C(=O)N1CCOCCN(C(=O)C(C)CC(C)C(=O)O)CCOCC1)C(=O)O (stereo unspecified)	i	0.9	·	·	-0.8	-4	102
53	CCOc1ccc2oc(=O)cc(C)c2c1	i	0.99	-42	49	-2.9	5	109
54	CC(C)C(=O)Nc1sc2c(c1C#N)CCCCC2	i	1	5	109	-1.1	5	97
55	O=C(NC1CCCCCC1)c1ccc(S(=O)(=O)NCc2ccco2)cc1	i	0.78	1	122	-0.5	0	102
56	CS(=O)(=O)N(CCC(=O)O)Cc1ccccc1	i	0.77	6	103	-1.9	-2	101
57	CCCOc1ccc(Br)cc1/C=N/O	i	0.94	-11	134	-0.3	-3	99
58	CC(C)(C)c1cc(C(=O)NCc2ccco2)ccn1	i	1.4	11	112	-2.1	-1	85
59	C[C@H](NC(=O)c1ccco1)C(=O)NCCc1ccc(S(N)(=O)=O)cc1	i	1.1	·	·	·	·	94
60	Cc1cc(C)c2c(-n3cccc3)c(C(=O)O)sc2n1	i	1	-22	128	-3.8	-7	88
61	Cc1ccccc1C1(CCN2CCCCC2)CCOC(C)(C)C1 (stereo unspecified)	i	0.98	-50	140	-0.9	-2	105
62	CCOc1cc(N2CCOCC2)c(OCC)cc1NC(=O)c1ccco1	i	0.99	·	·	·	0	97
63	Cc1ccc2c(c1)NC(=O)C(CC(=O)NCCCN1CCCC1)O2 (stereo unspecified)	i	1	·	·	-2.1	1	102
64	CCOc1ccc(S(=O)(=O)n2cnc3cc(C)c(C)cc32)cc1	i	0.9	-33	63	-0.4	-3	108
65	COCCCn1c2nc3ccccc3nc2c2c(=O)n(CC3CCCO3)cnc21 (stereo unspecified)	i	1	·	·	-2.1	0	103
66	Cc1ccc2nc(-c3cccc(NS(C)(=O)=O)c3)cc(-c3ccccc3)c2c1	i	0.91	·	·	1.3	1	101
67	COc1ccc(CCCC(=O)O)c(C)c1	i	1.2	15	76	-1.1	-8	112
68	NC(=O)c1ccccc1N/C=C/C(=O)c1ccc(Cl)cc1Cl	·	·	74*	87*	0.8	2	106
69	CCOC(=O)C1=C(CN2CC(C)CC(C)C2)NC(=O)NC1c1ccc2c(c1)OCO2 (stereo unspecified)	·	·	-100	73	·	-10	97
70	CC(=O)Cc1nsc(NC(=O)c2ccc(-c3cccc(C(F)(F)F)c3)o2)n1	i	0.77	-186	50	-4.2	-9	130
71	C#CCOCCOCCOCCNc1nc(N2CCN(C(=O)[C@H](CCCCN)n3cc([C@@H](N)CC(C)C)nn3)CC2)nc(N2CCN(C(=O)[C@H](Cc3ccc(O)cc3)n3cc([C@@H](N)CC(C)C)nn3)CC2)n1	·	·	·	·	·	-1	100
72	Cc1oc2nc(SCC(=O)N3CCCCC3)nc(N)c2c1C	i	0.87	-50	100	-1.2	4	110
73	COc1ccccc1CNC(=O)CSC1=NCCS1	i	0.92	·	·	·	-2	98
74	CCOC(=O)C1=C(Cc2ccc(OC)cc2)C(=O)c2ccccc2C1=O	·	·	29	81	-3.0	-4	57
75	Cn1ncc(C(N)=O)c1NC(=S)NC(=O)c1ccc(Br)o1	i	1	·	·	·	-3	101

Additional entries follow.
nr	compound	HSV replic up	HSV replic up primary fold	INS promoter inh	INS promoter inh cell count	GALR2 ag	PKD1 inh	RGS16-Gao HTS
76	Cc1nn(Cc2ccccc2Cl)c(Cl)c1C(=O)NCCc1ccccc1	i	0.99	·	·	0.2	-14	137
77	Cc1cccc(C)c1NC(=O)CCCCCC1NC(=O)NC1C (stereo unspecified)	i	0.93	·	·	·	-10	102
78	CCOCCCNC(=O)CN1C(=O)/C(=C/c2ccccc2C)Sc2ccccc21	i	0.98	-46	121	·	3	99
79	COC(=O)c1ccc(CSc2ccc3nnc(-c4ccccc4)n3n2)o1	i	0.85	·	·	-1.4	0	104
80	COc1ccc(N(CC(=O)Nc2ccc3c(c2)OCO3)S(=O)(=O)c2ccccc2)cc1OC	i	0.79	·	·	·	·	97
81	COC(=O)c1sc2ccccc2c1-n1cccc1C(=O)C(=O)Nc1ccc(C)cc1	i	0.84	22	35	0.2	-4	132
82	Cc1cccc(OCC(=O)Nc2cc(S(=O)(=O)N3CCCCC3)ccc2N2CCN(C)CC2)c1	i	0.79	·	·	·	4	103
83	O=C(c1ccc(OC2CCN(Cc3ccccn3)CC2)cc1)N1CCCCCC1	i	0.86	·	·	·	-3	102
84	O=C1CC(C(=O)Nc2ccc(Cl)cc2)n2ncnc2N1 (stereo unspecified)	i	1.1	-17	47	·	-4	131
85	O=S(=O)(Nc1ccc(N=Nc2ccccc2)cc1)c1ccccc1	i	0.84	·	·	-2.0	-9	103
86	O=C(Nc1ccc(N2CCOCC2)cc1)c1cccc(S(=O)(=O)N2CCCCCC2)c1	i	0.93	·	·	·	-3	99
87	COc1ccc(C(=O)N(Cc2nc(-c3ccc(C)cc3)no2)C(C)C)cc1OC	i	0.94	·	·	-2.9	-6	110
88	Cc1ccc(/C=C/C(=O)Nc2sc(C)c(C)c2C(=O)OC(C)C)o1	i	1.2	8	95	-0.7	-9	93
89	CN1CCN(C(=O)c2ccc(-n3cccn3)nc2)CC1	i	0.93	48	128	·	1	105
90	COC(=O)COc1ccc(C2NC(=O)NC(C)=C2C(=O)NCc2ccccc2)cc1OC (stereo unspecified)	i	1.1	·	·	·	1	100
